# H5N1 antiviral – antiviral screen in MDCK cells, H5N1 avian flu; cytopathic effect, luminescence, 72 h; hits give high values; no value below 0 was filed and about half of the inactive calls have no number; reference of the scale not given here; inhibition, % at 50 µM; 96,000 compounds, 0.07% hits; in the data active = inhibition above about 25%
# Numbers without * were called inactive; i = inactive. Some of the compounds tested; rates above refer to the full screens.
# The first 17 compounds, ahead of the listing:
SMILES,H5N1 antiviral
C=CCn1c(SCC(=O)Nc2cc3oc4ccccc4c3cc2OC)nnc1-c1cnccn1,0.3
COc1ccc(N2C(=O)C3CC=C(Cl)CC3C2=O)cc1 (configuration not stated),0.4
CCn1nc(C)c(C(=O)Nc2cc(Oc3cc(C)cc(C)c3)cc([N+](=O)[O-])c2)c1C,i
COc1c(Cl)cc(Cl)cc1C(=O)Nc1ccc(NC(=O)c2cccs2)cc1,i
CCOC(=O)N1CCN(Cc2nc(-c3ccc(C)cc3)no2)CC1,i
C=CCC1(O)C(=O)N2C(=C1C(=O)OCC)c1ccc3ccccc3c1CC2(C)C (configuration not stated),0.3
CCOCCCNC(=O)CN1CCN(c2ccc(F)cc2)CC1,1.0
Cc1nn(-c2ccccc2)c(C)c1/C=N/NC(=O)CSc1nc2ccccc2c(=O)n1-c1ccc(Br)cc1,i
N#Cc1ccccc1NC(=O)COC(=O)c1ccc(S(=O)(=O)N2CCCC2)cc1,i
CCN1CCN(C(C(=O)NC2CCCCC2)c2ccc(Cl)cc2)CC1 (configuration not stated),0.2
Cc1ccc(OCc2nnc(SCC(=O)c3cccs3)n2-c2ccccc2)cc1C,1.4
Cc1ncc2c(c1OC(=O)c1ccccc1)COC(C)(C)OC2,0.3
CCCC(C)C(=O)NCc1ccc2c(c1)OCO2 (configuration not stated),0.9
COc1ccc(/C=C2\NC(=S)N(CC3CCCO3)C2=O)c(OC)c1C (configuration not stated),0.2
CCC1C(=O)Nc2nc(-c3ccccc3)c(-c3ccccc3)n2N=C1C (configuration not stated),6.7
COc1ccc(S(=O)(=O)Nc2ccc(NC(C)=O)cc2)cc1OC,1.0
CN(C)S(=O)(=O)c1cccc(C(=O)C2=C3SC=C(c4ccccc4)N3CC2)c1,1.0

# Results, from the first entry:
SMILES,H5N1 antiviral
C=CCn1c(SCC(=O)Nc2cc3oc4ccccc4c3cc2OC)nnc1-c1cnccn1,0.3
COc1ccc(N2C(=O)C3CC=C(Cl)CC3C2=O)cc1 (configuration not stated),0.4
CCn1nc(C)c(C(=O)Nc2cc(Oc3cc(C)cc(C)c3)cc([N+](=O)[O-])c2)c1C,i
COc1c(Cl)cc(Cl)cc1C(=O)Nc1ccc(NC(=O)c2cccs2)cc1,i
CCOC(=O)N1CCN(Cc2nc(-c3ccc(C)cc3)no2)CC1,i
C=CCC1(O)C(=O)N2C(=C1C(=O)OCC)c1ccc3ccccc3c1CC2(C)C (configuration not stated),0.3
CCOCCCNC(=O)CN1CCN(c2ccc(F)cc2)CC1,1.0
Cc1nn(-c2ccccc2)c(C)c1/C=N/NC(=O)CSc1nc2ccccc2c(=O)n1-c1ccc(Br)cc1,i
N#Cc1ccccc1NC(=O)COC(=O)c1ccc(S(=O)(=O)N2CCCC2)cc1,i
CCN1CCN(C(C(=O)NC2CCCCC2)c2ccc(Cl)cc2)CC1 (configuration not stated),0.2
Cc1ccc(OCc2nnc(SCC(=O)c3cccs3)n2-c2ccccc2)cc1C,1.4
Cc1ncc2c(c1OC(=O)c1ccccc1)COC(C)(C)OC2,0.3
CCCC(C)C(=O)NCc1ccc2c(c1)OCO2 (configuration not stated),0.9
COc1ccc(/C=C2\NC(=S)N(CC3CCCO3)C2=O)c(OC)c1C (configuration not stated),0.2
CCC1C(=O)Nc2nc(-c3ccccc3)c(-c3ccccc3)n2N=C1C (configuration not stated),6.7
COc1ccc(S(=O)(=O)Nc2ccc(NC(C)=O)cc2)cc1OC,1.0
CN(C)S(=O)(=O)c1cccc(C(=O)C2=C3SC=C(c4ccccc4)N3CC2)c1,1.0
CC(C)(O)C#Cc1ccccc1C(=O)NC(CC(N)=O)C(=O)O (configuration not stated),0.8
Brc1ccccc1-c1nnc(COc2ncnc3c2cnn3-c2ccccc2)o1,i
Cc1cc(S(=O)(=O)NC(C)C)ccc1OCC(=O)N1CCN(Cc2ccc3c(c2)OCO3)CC1,3.5
O=c1c2c(nc3nc(SCc4ccccc4)[nH]n13)CCC2,i
Cc1ccc(-c2cc(C(=O)NCc3ccccn3)c3ccccc3n2)cc1,i
Cc1csc(SCC(=O)Nc2c(C)n(C)n(-c3ccccc3)c2=O)n1,0.8
C=CCNc1oc(COc2ccc(C)cc2)nc1C#N,0.5
CN(C)S(=O)(=O)c1ccc(C(=O)Nc2ccc(OCC(=O)N3CCOCC3)cc2)cc1,0.1
O=C(Nc1nc2c(Cl)cccc2s1)c1ccc(Br)o1,i
CCCC12CN3CN(C1)CC(CCC)(C3)C2O (configuration not stated),1.0
CC(C)NC(=O)Cn1nnc(-c2ccc(Cl)cc2)n1,i
CC(C)C(NS(=O)(=O)c1ccc(Br)s1)C(=O)O (configuration not stated),i
CC(C)CC(=O)NC(=S)Nc1cccc(NC(=O)c2ccccc2Cl)c1,1.2
COc1ccc(NC(=S)NC(NC(=O)c2cccc3ccccc23)C(Cl)(Cl)Cl)c([N+](=O)[O-])c1 (configuration not stated),2.6
Cc1nc(NC(=O)c2cc3c(s2)CCCCC3)sc1C(=O)N(C)C,i
O=C1NC(=O)N(Cc2ccccc2Cl)C(=O)/C1=C/N1CCOCC1,0.4
CN1C(=C2C(=O)OC(C)(C)OC2=O)Sc2ccccc21,i
COc1ccc(N=c2oc3c(OC)cccc3cc2C(=O)NCc2ccco2)cc1OC,0.1
c1ccc(-n2nnnc2SCc2cn3ccccc3n2)cc1,0.4
CCOC(=O)C1CCCCN1Cc1ccc(F)c(Br)c1 (configuration not stated),i
Cc1nc(-c2cccnc2)sc1C(N)=O,0.7
O=C(O)CCC(=O)NC1CCCCCCC1,i
COc1ccc(C(=O)NCC2OCCc3ccccc32)c(O)c1 (configuration not stated),0.2
CC1=C(C(=O)Nc2ccc(C)cc2C)C(c2cccs2)NC(=S)N1 (configuration not stated),0.1
O=C(CSc1nnc(-c2cc(-c3cccs3)nc3ccccc23)o1)NC1CCCCC1,0.1
C=CCn1c(=O)/c(=C/c2ccc(Cl)cc2)s/c1=C(/C#N)c1nnc2n1CCCCC2,2.1
O=C(CSCc1cnn(-c2ccccc2)c1-n1cccc1)NCc1cccs1,2.0
O=C(O)CCC(=O)Nc1ccc2c(c1)oc1ccccc12,i
COc1ccc(C2=NO[C@@H]3C(=O)N(Cc4ccccc4)C(=O)[C@H]23)cc1OC,i
CC1(Cc2cn(CCC#N)c3ccccc23)OCCO1,0.2
COCCCNC(=O)CCn1c(=O)c2ccccc2n(CC(=O)Nc2ccc(C)cc2C)c1=O,i
CCCC1=C(C(=O)OCC)C(c2ccc(O)cc2)n2ncnc2N1 (configuration not stated),0.2
CCc1ccc(-c2csc3ncn(CC(=O)N4CCOCC4)c(=O)c23)cc1,1.1
Cc1cc(NS(=O)(=O)c2ccc(NC(=O)C(C)N3C(=O)c4ccccc4C3=O)cc2)nc(C)n1 (configuration not stated),i
CC1CC(C)CN(CC(=O)Nc2ccc(S(N)(=O)=O)cc2)C1 (configuration not stated),i
COc1ccc(-c2nc(-c3ccc(NC(=O)c4ccc(Br)o4)cc3)no2)cc1OC,1.5
N#Cc1c(N2CCN(C(=O)c3ccco3)CC2)nc(-c2ccccc2)c2c1CCCC2,0.2
C/C=C/Cn1c(SCc2ccccc2)nc2c1c(=O)[nH]c(=O)n2C,0.0
CCOC(=O)C(Oc1ccc(=O)[nH]n1)C(C)=O (configuration not stated),i
COCCn1c(SCC#N)nnc1-c1ccccc1O,i
Cn1cc(SCC(=O)N2CCCc3ccccc32)c2ccccc21,3.2
Cc1cc(N2CCN(c3ccccc3)CC2)nc(-n2nc(C)cc2C)n1,0.7
COc1ccc(S(=O)(=O)NC(CC(=O)N2CCc3ccccc32)c2ccco2)cc1 (configuration not stated),i
# Remaining list, next part.
SMILES,H5N1 antiviral
CCN(CC)C(=O)c1ccc(C(=O)c2c(C)cc(C)cc2C)cc1,0.7
Cc1cccn2cc(CNC(=O)CC3CCCC3)nc12,i
[O-][n+]1onc2c1C(N1CCOCC1)CCC2N1CCOCC1 (configuration not stated),i
CCOc1ccccc1-c1nnc(SCC(=O)Nc2ccccc2)o1,0.2
CCC(c1nnnn1CCOC)N1CCN(c2cccc(C(F)(F)F)c2)CC1 (configuration not stated),1.3
CC(OC(=O)CCCOc1ccccc1)C(=O)NC(N)=O (configuration not stated),i
Cc1cc2c(cc(C(=O)NCCCN3CCOCC3)n2Cc2ccc(Cl)cc2)o1,i
O=CN(/C=C1\Sc2ccccc2C1=O)Cc1ccccc1,i
CN(Cc1nc(-c2ccccn2)no1)S(=O)(=O)c1ccc(Br)cc1,0.2
COC(=O)c1ccc(CSc2nc3c(cnn3-c3ccccc3)c(=O)[nH]2)o1,4.1
Cn1c(=O)[nH]c(=O)c2c1nc(Br)n2CCCc1ccccc1,2.5
CCCN(CC1CC1)S(=O)(=O)c1ccc(-n2cnnn2)c(OC)c1,1.0
N#Cc1c(/N=C/N2CCCC2)oc(-c2ccccc2)c1-c1ccccc1,i
Cc1cc(C)n2nc(SCC(=O)N/N=C/c3ccccc3F)nc2n1,2.5
COC(=O)CCC(=O)Nc1cccc(Br)c1,i
CCOC(=O)/C(C#N)=C1/C=CN(c2ccc(C)cc2)C=N1,0.3
CCS(=O)(=O)N1CCCC(C(=O)NCCCN2CCCC2=O)C1 (configuration not stated),i
O=C1CC(N2CCN(Cc3ccc4c(c3)OCO4)CC2)C(=O)N1Cc1ccc(N2CCCC2=O)cc1 (configuration not stated),1.1
COc1ccc(CCN2CC(O)=C(c3nc4ccccc4c(=O)[nH]3)C2=N)cc1OC,0.9
COc1cc(C(=O)NC2CCN(Cc3nnnn3Cc3cccs3)CC2)cc(OC)c1OC,0.7
N#Cc1sc2nc3c(c(-c4cccnc4)c2c1N)CCC3,2.7
COc1ccc(CCNC(=O)C2CCN(S(=O)(=O)c3ccc(OC)c(OC)c3)CC2)cc1,i
Cc1onc(-c2c(F)cccc2Cl)c1C(=O)NC1CCSC1=O (configuration not stated),0.5
COc1cccc(C(=O)NC2=NCCS2)c1,i
Cc1ccc(NC(=O)Cc2nnc(SCC(=O)c3ccc(Br)cc3)n2C)cc1,i
CC(C)OC(=O)Nc1ccc(Oc2c(F)c(F)c(F)c(F)c2F)cc1,i
Cc1ccc(S(=O)(=O)Cc2ccc(C(=O)N3CCCC3)o2)cc1,2.3
CCOC(=O)c1ccc(CNC(=O)c2n[nH]c(=O)c3ccccc23)o1,3.8
CCCc1nc(N2CCCC2)c(C#N)c2c1CCCC2,0.3
CCOC(=O)C1CCCN(C(=O)c2c(-c3ccccc3Cl)noc2C)C1 (configuration not stated),0.1
O=c1[nH]c(=O)n(CCc2ccc(F)cc2)c(O)c1C=NCCCn1ccnc1,0.2
CC(C)(C)C1CCC2(CC1)C(C#N)=C(SCC(=O)Nc1ccccc1)NC(=O)C2C#N (configuration not stated),i
COC(=O)CN1C(=S)N(Cc2ccccc2)C(=O)C1CC(=O)Nc1ccc(Br)cc1 (configuration not stated),1.7
CC1CCN(S(=O)(=O)c2ccc3c(c2)c(=O)c(C(=O)NC2CCCC2)cn3C)CC1,0.3
Cn1c(C(=O)NCC2CCCO2)cc2c(=O)n(C)c3ccccc3c21 (configuration not stated),2.5
O=c1oc2ccccc2c(O)c1CN1CCCCC1,i
CCn1c(SCC(=O)O)nnc1C1CCCCC1,0.1
CCOC(=O)CCCCC(=O)c1[nH]c(=O)[nH]c1Cn1ccnc1,i
O=C(Cn1nc(Cc2cccnc2)c2ccccc2c1=O)NCC1CCCO1 (configuration not stated),1.4
Cc1cccc(N(C(=O)Cn2nnc3ccccc32)C(C(=O)NC(C)(C)C)c2ccsc2)c1C (configuration not stated),0.4
Cc1ccc2c(c1)cc(CN(Cc1ccc3c(c1)OCO3)C(=O)c1cnccn1)c1nnnn12,1.8
CC1=C(Sc2ccccn2)C(=O)NC(C)(C)C1,1.2
Cc1cccc(NS(=O)(=O)c2ccc(C3CCCCC3)cc2)c1,0.5
Fc1cccc(NC(=S)N2CCCCC2)c1,0.5
CCSc1nc2ccccc2n1CC(=O)N1CCCCC1,0.5
COc1ccccc1NC(=O)Cn1cnc2c(cnn2-c2ccc(C)c(C)c2)c1=O,i
CCN(CC)S(=O)(=O)c1ccc(Cl)c(C(=O)NC2CCCC2)c1,0.6
O=C(C1CCN(Cc2ccc(OCc3ccccc3)cc2)CC1)N1CCCC1,1.1

# An excerpt of these results, with tabs.
Compound	H5N1 antiviral
CCN(CC)S(=O)(=O)c1ccc(Cl)c(C(=O)NC2CCCC2)c1	0.6
Fc1cccc(NC(=S)N2CCCCC2)c1	0.5

# Going on with the list.
SMILES,H5N1 antiviral
Cn1c(=O)c2cc(S(=O)(=O)NC(C(=O)N3CCCCCC3)c3ccccc3)ccc2n(C)c1=O (configuration not stated),2.5
Cn1cc(SCC(=O)N2CCN(c3ccccc3)CC2)c2ccccc21,3.3
CC1=C(C(=O)OC(C)C)[C@]2(C(=O)N(CC(N)=O)c3ccccc32)C(C#N)=C(N)O1,i
CCc1ccc(C2CC(c3ccccc3C)n3nc(N)nc3N2)cc1 (configuration not stated),0.4
N#CC[n+]1cc(-c2ccc(Cl)cc2)n2c1CCC2,0.8
CCCCNC(=O)OC1CCS(=O)(=O)C1 (configuration not stated),1.2
COc1cc(-c2nc3ccccn3c2/N=C/c2ccccc2)ccc1O,0.9
COc1cccc(CC(C(=O)Nc2cc(C)ccc2C)c2nn[nH]n2)c1OC (configuration not stated),0.5
COC(=O)CCN(C1CCCCC1)S(=O)(=O)c1ccc(S(=O)(=O)N2CCCCC2)cc1,2.6
O=C1c2ccccc2C(=O)N1CCCCn1c(=O)oc2ccccc21,0.3
O=S(=O)(c1ccc(Cl)cc1)N1CCC(N2CCOCC2)CC1,1.4
Cc1nc2ccccc2n2c(O)c(CC(=O)O)cc12,i
CCn1c(SCCOc2ccc(OC)cc2)nnc1C(CO)NC(=O)c1ccc(OC)cc1 (configuration not stated),1.3
CCc1nn(C(C)C(=O)Nc2cccc(C)c2C)c(=O)c2cc3occc3n12 (configuration not stated),0.5
COc1ccc(CCNC(=O)c2nnc(Cc3ccc(Cl)cc3)o2)cc1OC,i
O=C(NCCCN1CCc2ccccc2C1)C1CCN(c2nnc(-n3cccc3)s2)CC1,2.9
COc1ccc(CCNS(=O)(=O)c2ccc(Cl)s2)cc1OC,i
O=C1c2ccccc2S(=O)(=O)N1CC(O)COc1ccc(Cl)cc1 (configuration not stated),1.2
COc1ccc(OC)c(NC(=O)CCN2CCCCC2)c1,1.1

# Compound activity (PubChem)
